HIV TAR-Tat: HIV-1 TAR-Tat binding disruption; z-score (concentration not given with the values); HIV-1 TAR RNA, Tat peptide displacement FRET; stronger effect = higher value; AID 1259389; 100,000 tested, 0.6% active;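 further: score is relative to mean and SD of negative controls; some compounds called inactive have numbers as strong as hits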
CDC25B CDK2 inh: human CDC25B-CDK2/CyclinA binding inhibition; 94,000 tested, 0.72% active; z-score (no concentration beside the values); HTRF CDC25B-CDK2/CyclinA binding, anti-His/anti-Flag; stronger effect = higher value; AID 1259370; P30305+P24941;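 further: score is relative to mean and SD of negative controls; strong numbers were not always called active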
Numbers without * were called inactive; . = not tested or not shown.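 How the source made its calls: active means z-score from 3 up in half or more of its runs; inactive means the rest.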

Value order – HIV TAR-Tat, CDC25B CDK2 inh
> CC1CCCN(Cc2nc3c(c(=O)n(C)c(=O)n3C)n2CCCO)C1 (centres undefined)
    -1, -0.29
> CCOc1ccccc1Nc1nc(N)nc(CN2CCN(c3ccccc3F)CC2)n1
    2, .
> CCOC(=O)N1CCC(NC(=O)C2CCN(S(C)(=O)=O)CC2)CC1
    0.88, .
> COc1ccc(C2c3c(oc4ccccc4c3=O)C(=O)N2c2ccc(C)cn2)cc1OC (centres undefined)
    -0.31, 0.11
> CCN1CCN(CCCNC(=O)C2CCCN(c3nnc(N4CCCC4=O)s3)C2)CC1 (centres undefined)
    1.2, -1.1
> Cc1nn(CC(=O)N2CCCC2)c(=O)c2c(C)n(-c3ccc(Cl)cc3)nc12
    0.13, .
> O=C(COCc1cc(-c2cccs2)on1)NCCc1cccs1
    1.2, .
> N/C(Cn1ccc(C(F)(F)F)n1)=N\OC(=O)c1cccc(C(F)(F)F)c1
    ., -0.74
> CCn1c2ccccc2c2nnc(N3CCN(C4CCCCC4)CC3)nc21
    -0.74, -1.7
> O=C(CSc1ccc2nnc(-c3ccccc3)n2n1)N1CCCC1
    ., -1.3
> COc1ccc(OC(=O)CSc2nc(-c3ccccc3)nc3cc(=O)[nH]n23)cc1
    0.66, .
> COc1ccc(-c2[nH]nc3nc(-c4ccc(OC)cc4OC)cc(C(=O)O)c23)cc1
    1.8, .
> CCC(Sc1nnc(C)n2c1cc1oc(C)cc12)C(=O)Nc1ccccc1F (centres undefined)
    -0.03, .
> Cc1cc(=O)n2nc(N3CCC(C(=O)Nc4cccc(F)c4)CC3)sc2n1
    ., 0.55
> CN(C(=O)C1=CC(c2ccco2)=NS(=O)(=O)N1C)c1ccccc1
    -0.14, -2.2
> Cc1nc2nc(C)c(CCC(=O)NC(C)c3cccs3)c(C)n2n1 (centres undefined)
    -0.21, -1.3
> Cc1ccc(C(C)C)c(OCC(O)Cn2cnc3ccccc32)c1 (centres undefined)
    3.4, -0.82
> O=C(NC1CCCCC1)C1CCN(c2nc3ccccc3n3cccc23)CC1
    0.38, .
> CCOC(=O)c1noc2ncnc(N3CCc4ccccc4C3)c12
    -0.19, .
> Cc1cc(-c2ccc(C)c(S(=O)(=O)N3CCC(CN4CCc5ccccc5C4)CC3)c2)on1
    1.7, .
> CCCCN(C)c1nnc(NC(=O)Nc2ccc(Cl)cc2)s1
    -0.07, -1.6
> CCN1CCC(N(Cc2cccs2)C(=O)Nc2ccccc2Br)CC1
    0.98, .
> Fc1ccc(Nc2nnns2)cc1
    2.9, -0.45
> CC(=O)N1CCN(C(=O)Cc2sc(C)nc2-c2cccs2)CC1
    -0.1, -2.2
> O=C(CSc1nc(-c2ccccc2)[nH]c1S(=O)(=O)c1ccccc1)NC1CCCC1
    0.36, -0.88
> COc1cccc(NC(=O)Nc2nc3c(s2)CCCCCC3)c1
    -0.19, .
> O=C(O)c1ccc(-c2ccncc2)s1
    -0.11, -1.3
> CCN1C(=O)Cc2cc(NC(C)=O)ccc21
    -0.24, .
> CCc1ccc(NS(=O)(=O)c2ccc(N3CCCCS3(=O)=O)cc2)cc1
    0.68, .
> CCCN(CCC)C(=O)C(C)n1c2ccccc2c2nc(=O)cc(C)n21 (centres undefined)
    0.6, -0.91

Full records, quoted from the list.
Record of COc1ccc(-c2[nH]nc3nc(-c4ccc(OC)cc4OC)cc(C(=O)O)c23)cc1 : HIV TAR-Tat = 1.8; CDC25B CDK2 inh = .
Record of Cc1cc(=O)n2nc(N3CCC(C(=O)Nc4cccc(F)c4)CC3)sc2n1 : HIV TAR-Tat = .; CDC25B CDK2 inh = 0.55
Record of Cc1nc2nc(C)c(CCC(=O)NC(C)c3cccs3)c(C)n2n1 (centres undefined) : HIV TAR-Tat = -0.21; CDC25B CDK2 inh = -1.3

Next section.
Value order – HIV TAR-Tat, CDC25B CDK2 inh
> C=CCN1C(=O)C2(c3ccccc31)c1c(oc3cc(C)c(C)cc3c1=O)C(=O)N2CCOC (centres undefined)
    1.7, -2.1
> CCOC(=O)C1CCN(c2ccc(Cl)nn2)CC1
    -0.12, -1.7
> NC(=O)C1CCN(C(=O)C2CCN(c3ccc(Cl)cc3)C2=O)CC1 (centres undefined)
    0.89, .
> O=S(=O)(c1ccccc1)n1nc(-c2cccnc2)nc1NCc1ccco1
    0.29, 1.3
> O=c1c2cccnc2n(Cc2ccccc2F)n1-c1ccccc1
    0.73, -0.44
> CN(C(=O)C1CC(c2ccc(F)cc2)=NO1)C1CCCCC1 (centres undefined)
    2.4, -2.3
> Cc1ccccc1OCCSc1ncnc2nc[nH]c12
    ., -0.38
> COc1ccc(C(C)C)cc1S(=O)(=O)n1cnc(C)c1
    0.9, -1.8
> Nc1c(C(=O)Nc2ccc(Cl)cc2)sc2nc3c(cc12)CCCCC3
    0.9, -1.2
> Nc1nc(-c2ccc(Cl)cc2)nn1C(=O)c1cccs1
    0.15, -1.4
> CC1CCCCC1NC(=O)C1(C)Cn2c(ccc2-c2ccco2)C(=O)N1CCN1CCOCC1 (centres undefined)
    0.26, .
> CCN1C(=O)Cc2cc(NS(=O)(=O)c3ccc(F)cc3)ccc21
    2, .
> CCCN(CCC)CCNC(=O)c1sc2nc3n(c(=O)c2c1C)CCCCC3
    0.04, .
> Cc1cc(NC(=O)c2ccc3c(c2)CC(c2ccccc2)OC3=O)no1 (centres undefined)
    -1.4, -0.82
> CCN1C(=O)c2cc3ccccc3n2CC1(C)C(=O)NCC(=O)NCc1cccs1 (centres undefined)
    0.29, .
> CC1(C(=O)NC2CCCCC2)Cc2ccccc2C(=O)N1C1CCCC1 (centres undefined)
    1.5, -1.4
> CC(C)CCNC(=O)C1(C)Cn2nc(C(=O)N3CCN(C4CCCCC4)CC3)cc2C(=O)N1C (centres undefined)
    0.37, .
> c1ccc2c(c1)nc(NC1CC1)c1nncn12
    -0.08, 0.31
> CCOC(NC(=O)c1ccccc1)(C(F)(F)F)C(F)(F)F
    ., 0.27
> CCOc1ccc2ncc(S(=O)(=O)c3ccc(OC)cc3)c(N3CCN(CC)CC3)c2c1
    0.62, -0.7
> O=c1[nH]c2ccccc2nc1N1CCCCC1
    -0.38, 0.58
> Cn1c(=O)n(CCOc2ccc(Cl)cc2)c2ccccc21
    1.1, 1.5
> Cc1nn(-c2nncc(-c3ccccc3)n2)c2c1C(c1ccc(F)cc1)CC(=O)N2 (centres undefined)
    2, -0.06
> COc1ccccc1-n1c(C)c(C(C)=O)c2cc(O)ccc21
    ., -1.2
> O=C(c1ccco1)N1CCN(c2csc3ccccc3c2=O)CC1
    1.3, .
> NC1CCN(c2cccc(Cl)n2)CC1
    1.9, .
> Cc1[nH]nc2c1C(c1ccc(N(C)C)cc1)C1=C(CC(C)(C)CC1=O)N2 (centres undefined)
    ., -0.66
> O=C(c1cnc(N2CCOCC2)nc1)N1CCN(c2ccc(F)cc2)CC1
    0.44, .
> COc1ccc(C2=Nc3cccc4cccc(c34)N2)cc1
    1.4, -0.44
> COC(=O)C1C(=O)NC(SCc2cccc3ccccc23)=C(C#N)C1c1ccccc1C (centres undefined)
    0.69, -1.4
> Clc1ccc(C2=NN3COc4ccccc4C3C2)cc1 (centres undefined)
    2, -1.7
> COc1ccc2nc3oc(C(=O)NCCN4CCN(C)CC4)cc3cc2c1
    0.04, .
> CC1CCCCN1Cc1nc2c(c(=O)n(C)c(=O)n2C)n1CCCO (centres undefined)
    0.55, -1.7
> CCN(CC)S(=O)(=O)c1cc(-c2ccc(=O)n(Cc3ccc(Cl)cc3)n2)ccc1C
    0.37, 2.9
> COC(=O)c1sc(N2C(=O)c3oc4cc(C)c(C)cc4c(=O)c3C2c2ccc(O)cc2)nc1C (centres undefined)
    2.6, -1.9
> CCOc1ccc(CCN=C2NS(=O)(=O)C(c3ccc(C)cc3)=C2C)cc1
    -0.63, -4.2
> c1ccc(CCNc2nc(-c3ccccc3)no2)cc1
    1.1, .
> Cc1ccc2nc(C)c(Cc3nnc(SCC(=O)N4CCOCC4)n3C)c(=O)n2c1
    0.34, -1.1
> c1ccc(-c2cc(-c3ccco3)c(-c3ccccc3)nn2)cc1
    -0.21, -0.99
> O=C(CN1C(=O)c2ccccc2S1(=O)=O)NCCSCc1ccccc1Cl
    0.72, -0.45
> Cc1ccc(C2C(=O)c3ccccc3C2=O)cc1
    2.2, -1.7
> COCCOC(=O)c1cnn2c(C(F)(F)F)cc(-c3cccs3)nc12
    1, 0.14
> O=C(Nc1cc(F)c2nc(N3CCOCC3)ccc2c1)C1CCCC1
    1.4, .
> Clc1ccccc1OCc1nnc(-c2ccccc2Cl)o1
    0.43, 0.99
> COc1ccc(CCNc2ncnc3c2nc2n3CCCC2)c(OC)c1
    -1.7, .
> CCOP(=O)(CC(CP(=O)(OCC)OCC)P(=O)(OCC)OCC)OCC
    ., -2.3
> Cc1cc(C)c(NS(=O)(=O)c2ccc3c(c2)n(C)c(=O)n3C)c(C)c1
    1.9, -1.7
> C#CCn1c(COc2ccc(C)cc2)nc2ccccc21
    -1.1, -0.61
> Cn1c(=O)c2c(-c3ccc(Br)cc3)n(Cc3ccco3)cc2n(C)c1=O
    -0.15, -0.8
> O=C(c1cccn2c(=O)c3cc(Cl)ccc3nc12)N1CCN(c2ccccc2)CC1
    ., 0.35
> CSc1cccc(N2C(=O)N(Cc3ccccc3)C3CS(=O)(=O)CC32)c1 (centres undefined)
    -0.23, .
> COC(=O)c1ccc(Cn2nnc3sc4c(c3c2=O)CCC(C)C4)cc1 (centres undefined)
    -2.2, -0.14
> CCOC(=O)C1C(=O)CC(C)(O)C(C(=O)OCC)C1/C=C/c1ccccc1 (centres undefined)
    1.1, .
> O=[N+]([O-])c1ccsc1Sc1ccc(C(F)(F)F)cn1
    ., -0.54
> CCC(C(=O)NCCOC)n1c2ccccc2c2nc(=O)cc(C)n21 (centres undefined)
    0.83, -1.6
> COC(CNc1cccc(F)c1C#N)OC
    ., -0.73
> O=S(=O)(Nc1ccccc1F)c1ccc2[nH]c3c(c2c1)CCCC3
    -0.21, .
> O=C(O)CSCc1cnn(-c2ccccc2)c1-n1cccc1
    2.9, .
> Cc1cc(S(=O)(=O)Oc2ccc(OCc3ccccc3)cc2)c(C)cc1Cl
    ., -1.3
> O=C(c1ccc2c(c1)[nH]c(=S)n1c3ccccc3nc21)N1CCN(c2ncccn2)CC1
    ., -1.8

Next section
Value order – HIV TAR-Tat, CDC25B CDK2 inh
> COc1ccc(-c2noc(=O)[nH]2)cc1
    1.2, -1.3
> Cc1cc(C)c(C(=O)CC2(O)C(=O)N(C)c3ccccc32)c(C)c1 (centres undefined)
    1.1, 0.51
> Cc1ccc(CN2N=NC3C(=O)N(c4ccc(F)c(F)c4)C(=O)C32)cc1 (centres undefined)
    0, -0.72
> COC(CNC(=O)C(=O)Nc1ccc(Cl)cc1Cl)OC
    ., 0.4
> Cc1ccc(-c2nsc(NC(=O)c3cc(=O)c4cc(C)c(C)cc4o3)n2)s1
    0.53, -0.95
> Cc1ccccc1C1C2=C(CCCC2=O)Nc2nc3ccccc3n21 (centres undefined)
    ., -4
> Cc1sc2nc(SCC(=O)NCCCn3ccnc3)[nH]c(=O)c2c1C
    -0.08, -1.3
> Cn1c(=O)c(=O)n(C)c2cc(S(=O)(=O)CCC(=O)Nc3cccnc3)ccc21
    1.1, 0.25
> Cc1c(Cl)cccc1-n1nnc(-c2nc(-c3ccncc3)no2)c1N
    -0.96, .
> Cc1sc2ncn(CC(=O)NCCCC(=O)O)c(=O)c2c1C
    ., -4
> Cc1c(C(=O)N2CCCCC2C)sc2nc3n(c(=O)c12)CCCC3 (centres undefined)
    2, .
> CCc1ccc2c(c1)NC(c1ccncc1)=NC(c1ccc(Cl)cc1)=N2
    2.8, -2.3
> O=C(Cc1noc2ccccc12)Nc1ccc2c(c1)OCCO2
    1.5, -1.6
> CCn1c(C(=O)NC2CCCCC2C)cc2sc(Cl)cc21 (centres undefined)
    ., -1.8
> Cc1nc(N2CCN(C)CC2)cc(N2CCN(C(=O)c3ccc4c(c3)OCO4)CC2)n1
    -0.85, -2.3
> CC1=C(C)CC2C(=O)N(c3ccc(N4CCOCC4)cc3)C(=O)C2C1 (centres undefined)
    1.1, -2.3
> Cc1ccc(C)c(NC(=O)c2cnc3sc(N4CCCC4)nn3c2=O)c1
    0.62, .
> CC(CCNC(=O)C1CCN(c2nn3c(=O)c4c(nc3s2)CCCC4)CC1)N1CCCC1 (centres undefined)
    -0.75, .
> CCCN(C(=O)C(=O)Nc1ccc2nc3n(c(=O)c2c1)CCCCC3)c1ccc(F)cc1
    ., -3.3
> CCCCOC(=O)C1C2C=CC3(CN(Cc4ccccc4)C(=O)C13)O2 (centres undefined)
    -0.01, -1.6
> CCCC(=O)OCc1cnc(C)c2oc(=O)c(-c3nc(-c4ccc(OC)cc4)no3)cc12
    -1.9, -2.1
> Cc1nnc(N2C(=O)C(O)=C(C(=O)c3cccs3)C2c2ccc(Cl)cc2)s1 (centres undefined)
    -0.85, 0.03
> CCOC(=O)c1c(C)oc2ncnc(Nc3cc(OC)ccc3OC)c12
    1, .
> CCOc1nc(-c2ccccc2)c2cc(Cl)ccc2n1
    2.3, .
> Cc1nc2c(C)cccn2c(=O)c1Cc1nnc(SCC(=O)Nc2ccc3c(c2)OCO3)n1C
    0.66, -0.38

Exported as tab-separated lines: entries from further up
SMILES	HIV TAR-Tat	CDC25B CDK2 inh
Cc1ccc(-c2nsc(NC(=O)c3cc(=O)c4cc(C)c(C)cc4o3)n2)s1	0.53	-0.95
Cc1ccccc1C1C2=C(CCCC2=O)Nc2nc3ccccc3n21 (centres undefined)	.	-4
Cc1sc2nc(SCC(=O)NCCCn3ccnc3)[nH]c(=O)c2c1C	-0.08	-1.3

Assay outcomes as filed in PubChem BioAssay.

Hits appear at their usual frequency; 0.94% or so of the library scored in one or more.
